Rango complex inh = prevents formation of the Rango-importin beta complex. Potency, µM (highest dose often 92.2 µM), inactives show at the highest dose inhibition of complex formation. Q14974. AID 540263. 340,000 tested, 0.031% active. Rango CFP/YFP FRET sensor + importin beta, 45 min; active = rising FRET ratio curve, often small or poorly fitted; inconclusive = mostly compound fluorescence or quenching in the first reads; inactive = flat curves in all reads;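 also: potency is read from the fitted curve at half-maximal effect; 0% = DMSO wells and 100% = buffer wells lacking importin beta; nearly all actives have a fitted effect of over 15% in size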
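FRET biosensor (snurportin 1 IBB flanked by EYFP and cerulean), 50 nM, with compound 5 min, then 0.125 microM importin beta in PBS, 1 mM DTT, 0.02% Tween-20, 0.1% BSA. CFP/YFP ratio read after 45 min at room temperature; pre-read flags interference.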
miR-21 FLuc = miR-21 reporter, rising signal; AID 2288; 340,000 tested, under 10 active; Potency, µM (top dose mostly 38.3 µM), inactives show at the top dose reporter change, positive = more light; HeLa miR-21 FLuc reporter, luciferase, 48 h; active = well fitted rising curve with a large enough effect; inconclusive = small, poorly fitted or top-dose-only effect; inactive = no such curve, though single readings can be large or run the other way;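 also: % of control where 0% means no effect; miR-21 action dims this reporter so a rising signal means less miR-21 action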
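HeLa cells endogenously expressing miR-21, stably carrying CMV-driven firefly luciferase with a downstream miR-21 binding site, 2000 cells/well. Titrations up to approximately 40 uM, 48 hours; luciferase luminescence read.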
GLA inh pH 4.5 = blocks human alpha-galactosidase A at pH 4.5; 230,000 tested, under 10 active; AID 1467; purified enzyme, 4-MU-alpha-Gal fluorescence, pH 4.5; activity change, negative = inhibition, % at 105 µM; inconclusive = small, poorly fitted or top-dose-only inhibition, or a rising curve; inactive = flat fitted curve, though single readings scatter; no compound was filed as active;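 also: 0% = full activity with enzyme and -100% = basal without enzyme; dose as in the result columns while the protocol names 77 µM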
Target sequence (P06280 whole entry, looked up): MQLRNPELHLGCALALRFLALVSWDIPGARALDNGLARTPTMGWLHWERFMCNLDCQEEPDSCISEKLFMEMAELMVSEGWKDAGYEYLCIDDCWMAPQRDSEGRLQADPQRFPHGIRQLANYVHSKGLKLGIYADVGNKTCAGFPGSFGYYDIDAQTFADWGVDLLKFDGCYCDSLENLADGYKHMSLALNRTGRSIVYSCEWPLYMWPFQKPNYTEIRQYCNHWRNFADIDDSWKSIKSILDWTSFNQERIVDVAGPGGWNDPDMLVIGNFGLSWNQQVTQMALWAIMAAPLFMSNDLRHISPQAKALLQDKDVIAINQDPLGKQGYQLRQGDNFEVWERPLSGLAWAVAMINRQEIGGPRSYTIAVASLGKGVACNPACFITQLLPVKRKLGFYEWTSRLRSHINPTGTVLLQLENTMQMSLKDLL
Rango dissoc inh = inhibitors of RanGTP-induced Rango-importin beta complex dissociation | O95149+P62826 | Biochemical FRET Rango-importin beta, RanGTP-induced dissociation | Potency, µM (top dose mostly 46.1 µM), for the others: top-dose activity change, negative = inhibition | 340,000 tested, 0.071% active; active means falling FRET ratio curve, often poorly fitted, with flat reads before Ran was added; inconclusive means other falling curves, or compound fluorescence or quenching; inactive means flat or rising ratio curve;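 also: potency is read from the fitted curve at half-maximal effect; % of control where 0% means no effect; nearly all actives have a fitted effect of over 45% in size; -100% = wells without RanGTP and RCC1; the record marks most hits as doubtful in a second field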
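FRET read at 45 min, room temperature: inhibitors block the CFP/YFP signal rise when RanGTP (0.6 uM Ran, 2 mM GTP, 0.2 uM RCC1) frees Rango (0.1 uM) from importin beta (0.25 uM). Pre-read after 5 min compound exposure flags interference.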
Numbers without * were called inactive; ? = inconclusive; . = not tested or not shown; & = joins results of further samples. This is a subset. The share of hits here may be higher or lower than overall.

cpd	Structure	GLA inh pH 4.5	Rango dissoc inh
1	CCCN(CCC)Cc1cc(=O)oc2cc3c(cc12)CCC3	-1	-3%
2	CC[C@@]1(C(=O)OC)N[C@H](CN(C)C(=O)COc2ccccc2)[C@@H]2C(=O)N(Cc3ccccc3)C(=O)[C@@H]21	.	14%
3	COc1ccc(CCn2c(C)cc(C(=O)CSc3nc(N)cc(=O)[nH]3)c2C)cc1	-13	0%
4	c1ccc(CCN2CCN=C2Nc2ccccc2)cc1	.	14%
5	CN(C)S(=O)(=O)N1CCN(CC(O)COc2ccc3cc(Br)ccc3c2)CC1 (configuration not stated)	0	6%
6	CCOc1ccc2c(c1)n([O-])c1c([n+]2=O)CCCC1	-6	-15%
7	COC(=O)c1c(NC(=O)c2nc3ccccc3s2)sc2c1CC(C)(C)NC2(C)C	6	1%
8	COc1ccc(NC(=O)CN(C)C(=O)c2cn(-c3ccccc3)nc2-c2ccc(F)cc2)cc1	.	-6%
9	Cc1c(NC(=O)COC(=O)c2ccccc2Cl)c(=O)n(-c2ccccc2)n1C	-2	-2%
10	CCCCNC(=O)C(=O)N/N=C/c1ccc(OCC(=O)Nc2cccc(OC)c2)c(OC)c1	0	8%

cpd	miR-21 FLuc	Rango complex inh
1	2%	-0.4%
2	.	-0.4%
3	?	-0.1%
4	1%	-0.7%
5	16%	3.6%
6	-9%	-3.0%
7	-1%	0.3%
8	.	-1.0%
9	0%	-3.0%
10	-16%	-0.6%

(further entries)
cpd	Structure	GLA inh pH 4.5	Rango dissoc inh
11	CCN1CCN(Cc2c(O)ccc3c(=O)c(-c4ccccc4OC)coc23)CC1	1	3%
12	CC1(C)C[C@H]2C3=CCC4[C@@]5(C)CC[C@H](O)[C@](C)(CO)C5CC[C@@]4(C)[C@]3(C)C[C@H]3O[C@@H]1[C@H](O)[C@]32CO (some centres not stated)	.	-13%
13	OC1(c2ccccc2)CCN(Cc2ccccc2)CC1	-3	13%
14	CCn1cc(C2CC(=O)NC2=O)c2ccccc21 (configuration not stated)	-3	7%
15	CCOc1ccc(-n2c(=S)sc3c(=O)n(-c4ccccc4)c(SCC(=O)O)nc32)cc1	.	-2%
16	CCN(Cc1cccs1)C(=O)CN1C(=O)NC(c2ccccc2)(c2ccccc2)C1=O	.	6%
17	Cc1ccc(O)c(NS(=O)(=O)c2cccc3nsnc23)c1	.	-15%
18	Cc1cc(C(=O)Nc2ccccc2C)n(-c2ccccc2)n1	.	12%
19	COc1ccc(OC)c(CN2CCN(C(=O)c3cc(S(=O)(=O)N4CCOCC4)ccc3C)CC2)c1	.	-3%
20	CCn1c(SCC(=O)Nc2sc3c(c2C#N)CCC(C(C)(C)C)C3)nnc1-c1ccco1 (configuration not stated)	-13	-3%

cpd	miR-21 FLuc	Rango complex inh
11	-2%	-0.8%
12	.	0.1%
13	-6%	0.4%
14	-3%	-2.1%
15	3%	-0.9%
16	.	0.8%
17	-23%	-0.1%
18	-9%	-1.6%
19	.	0.1%
20	0%	-1.1%

The list continues:
cpd	Structure	GLA inh pH 4.5	Rango dissoc inh
21	Cc1ccccc1CC1(CO)CCCN(Cc2ccc(C#CC(C)(C)O)cc2)C1 (configuration not stated)	-17	-11%
22	COCc1cc(C)nc(OCC(=O)N/N=C/c2ccc(C)o2)c1C#N	3	4%
23	CCCCOC(=O)Cn1cnc2ccc(Br)cc2c1=O	4	7%
24	COc1ccc(-c2nn(-c3ccccc3)cc2/C=C(/C#N)C(N)=O)cc1[N+](=O)[O-]	5	-1%
25	O=C(O)c1ccccc1N/N=C\c1ccnc2ccccc12	-7	?
26	Cc1ccc(S(=O)(=O)NC(CC(=O)O)c2ccccc2)c(C)c1 (configuration not stated)	-12	0%
27	COc1ccc(C2N3CC4(C)CN2CC(C)(C3)C4)cc1OC (configuration not stated)	.	5%
28	Cc1cccc2cc3c(N)c(C#N)sc3nc12	-1	?
29	COc1ccc(CNc2nc(-c3cccnc3)nn2C(=O)c2cccs2)cc1	0	1%
30	CCCc1ccc(C(=O)/C=C/N(C)C)cc1	-3	?

cpd	miR-21 FLuc	Rango complex inh
21	20%	0.1%
22	0%	3.1%
23	-4%	-0.2%
24	-10%	0.8%
25	-23%	?
26	2%	0.9%
27	-4%	-0.7%
28	-11%	?
29	-4%	3.1%
30	-30%	?

Further compounds:
cpd	Structure	GLA inh pH 4.5	Rango dissoc inh
31	O=C1CSC(c2cccs2)N1c1ccccc1 (configuration not stated)	-8	0%
32	CCOCCCNc1nc(=S)[nH]c2cc(OC)c(OC)cc12	4	-14%
33	CC(=O)c1cccc(NC(=O)Cn2nc(-c3ccccc3Cl)ccc2=O)c1	-8	-7%
34	Cc1nn(-c2ccccc2)c2c1C(c1ccco1)C(C#N)=C(N)O2 (configuration not stated)	-2	3%
35	Cn1ncc(N=Cc2ccc([N+](=O)[O-])cc2)c1C(=O)N1CCOCC1	0	0%
36	O=C(NCCc1ccccc1)C1CCCN(S(=O)(=O)c2cccnc2)C1 (configuration not stated)	-4	0%
37	O=C(NCCc1ccc(F)cc1)c1cccc(NC(=O)c2ccccc2)c1	.	2%
38	COc1ccc(S(=O)(=O)NCCc2csc(C)n2)cc1C	-2	-5%
39	CCCN1C(=O)c2ccccc2NC1c1ccc(OC)c(CSc2ccccn2)c1 (configuration not stated)	-2	-4%
40	Cc1c(C(=O)N2CCN(c3ccccc3)CC2)oc2c(Cl)cccc12	.	-7%

cpd	miR-21 FLuc	Rango complex inh
31	-2%	1.9%
32	0%	1.0%
33	0%	-0.9%
34	-3%	-2.1%
35	0%	2.7%
36	-7%	-2.0%
37	-9%	3.1%
38	-2%	4.1%
39	0%	0.6%
40	.	5.0%

Later entries.
cpd	Structure	GLA inh pH 4.5	Rango dissoc inh
41	CCCc1cc(=O)oc2cc(OCC(=O)NCc3ccccn3)ccc12	.	11%
42	Cc1ccc(COC(=O)c2cc(S(=O)(=O)N3CCOCC3)ccc2C)cc1	.	-5%
43	Cc1cccc(C(=O)NCc2ccc(S(N)(=O)=O)cc2)c1[N+](=O)[O-]	10	13%
44	COc1ccc(/C=C/C(=O)Nc2cc(C)on2)cc1	7	-9%
45	O=C(O)CCCNC(=O)/C(=C\c1ccc(Cl)cc1)NC(=O)c1ccccc1Br	8	-3%
46	COc1cc2ccccc2cc1C(=O)Nc1ccc(O)cc1	.	?
47	Cc1cccc(NS(=O)(=O)c2ccc(C(=O)N3CCC3)cc2)c1C	.	-12%
48	COc1ccccc1OCC(=O)Nc1ccc(S(=O)(=O)N2CCCCCC2)cc1	-5	-1%
49	C=CCSc1nc(C)c(CC(=O)OCC(C)C)c(=O)[nH]1	7	-6%
50	CC1CCCC(C)N1C(=O)Cn1cc(/C=C2/C(=O)Nc3ccccc32)c2ccccc21 (configuration not stated)	-5	-10%

cpd	miR-21 FLuc	Rango complex inh
41	3%	0.0%
42	.	1.4%
43	-8%	0.7%
44	-43%	-0.7%
45	-3%	-0.2%
46	-47%	?
47	.	?
48	-4%	-0.6%
49	-8%	1.5%
50	26%	?

Later entries:
cpd	Structure	GLA inh pH 4.5	Rango dissoc inh
51	CC(C)(C)CC(=O)Nc1nnc(SCC(=O)N2CCCCC2)s1	.	-8%
52	O=C(NCCOc1ccccc1)c1cc2ccccc2o1	5	16%
53	C/C(=N\Nc1cccc2cccnc12)c1ccc(C)cc1	3	-28%
54	O=C(COc1ccccc1)n1nc(-c2ccc(Cl)cc2)nc1NCc1ccco1	0	-6%
55	CN(C)S(=O)(=O)n1cc(/C=C(\NC(=O)c2ccccc2Cl)C(=O)NCCCn2ccnc2)c2ccccc21	.	1%
56	COc1ccccc1OCCCOc1ccc([N+](=O)[O-])cc1Cl	7	-5%
57	Cn1nc(C(=O)Nc2nc3ccccc3[nH]2)ccc1=O	-6	-1%
58	COc1ccc(C(=S)N(C)C)cc1OC	9	3%
59	CCOC(=O)N1CCN(CC(=O)Nc2ccc(F)c(F)c2)CC1	-1	2%
60	CN1CCN(c2ccc(NC(=O)c3ccc4ccccc4c3)cc2)CC1	.	-8%

cpd	miR-21 FLuc	Rango complex inh
51	3%	2.6%
52	-46%	-4.3%
53	-57%	?
54	-11%	-1.0%
55	19%&18%	1.4%
56	-68%	3.2%
57	-40%	1.7%
58	-3%	0.1%
59	-2%	-1.2%
60	-59%	1.5%

Later entries:
cpd	Structure	GLA inh pH 4.5	Rango dissoc inh
61	CCOc1cccc(-c2c(C(=O)N/N=C(\C)c3cccs3)nnn2-c2nonc2N)c1	.	-25%
62	COc1ccc(OC)c(NC(=O)Cc2coc3ccc(C)cc23)c1	-6	-1%
63	Cc1ccc(N(CC(=O)N(C)Cc2ccccc2)S(C)(=O)=O)cc1C	.	1%
64	CCO/N=C(\C)c1c(O)cc(C(C)C)n(-c2ccccc2)c1=O	2	6%
65	COc1ccc(OCCCn2cc(/C=C3/C(=N)N4C=C(C)SC4=NC3=O)c3ccccc32)cc1	-5	?
66	CCOc1ccc(OCC)c(-c2c(=O)n(OCc3ccc(Cl)cc3)c3ccccc3[n+]2[O-])c1	-22	10%
67	CCOc1ccc(NC(=S)N2CCc3cc(OC)c(OC)cc3C2COc2ccc3c(C)cc(=O)oc3c2)cc1 (configuration not stated)	12	-21%
68	O=C(Cc1ccccc1)NN1CCCCC1	.	-28%
69	CCc1ccc(OCc2nnc(SCC(=O)Nc3cccc(C(=O)N4CCOCC4)c3)o2)cc1	1	2%
70	CCOC(=O)c1ccc(NC2c3ccccc3C(=O)N2c2ccc(C)cn2)cc1 (configuration not stated)	3	6%

cpd	miR-21 FLuc	Rango complex inh
61	0%	-0.5%
62	-11%	-7.3%
63	1%	4.2%
64	-5%	0.3%
65	-37%	?
66	4%	5.7%
67	-11%	-0.3%
68	-2%	2.0%
69	-7%	-3.6%
70	-3%	1.3%

The list goes on.
cpd	Structure	GLA inh pH 4.5	Rango dissoc inh
71	CC(C)CC(=O)NC(=S)Nc1ccc(F)cc1F	-8	-1%
72	O=c1oc2ccccc2c2c1cnc1ccccc12	.	-11%
73	Cc1c(CNCCC2=CCCCC2)c(C(=O)O)c(C)n1Cc1ccccc1	5	-11%
74	CN(C)C(=O)c1c(-c2ccccc2)oc2ccc(O)cc12	5	-14%
75	Cc1nc(SCc2ccccc2)c2ccsc2n1	1	-8%

cpd	miR-21 FLuc	Rango complex inh
71	-27%	0.8%
72	.	-1.8%
73	-1%	1.3%
74	-9%	-0.4%
75	-2%	3.0%

Screening data: PubChem BioAssay, National Center for Advancing Translational Sciences (NCATS)
